TRPML1 ag = human mucolipin-1 channel agonism; 410,000 compounds, 0.12% hits; Q9GZU1; TRPML1-expressing cells, Ca2+ dye fluorescence, FDSS; host cell line not named in the record; reference of the full effect not given here; activation, % (test concentration not listed); AID 624414; in the data active = activation above about 50%; inconclusive = about 30% to 50%; inactive = below about 30%; further: 0% is about no effect; the text of the record puts the active cut at 80%
Target sequence (Q9GZU1 whole entry, looked up): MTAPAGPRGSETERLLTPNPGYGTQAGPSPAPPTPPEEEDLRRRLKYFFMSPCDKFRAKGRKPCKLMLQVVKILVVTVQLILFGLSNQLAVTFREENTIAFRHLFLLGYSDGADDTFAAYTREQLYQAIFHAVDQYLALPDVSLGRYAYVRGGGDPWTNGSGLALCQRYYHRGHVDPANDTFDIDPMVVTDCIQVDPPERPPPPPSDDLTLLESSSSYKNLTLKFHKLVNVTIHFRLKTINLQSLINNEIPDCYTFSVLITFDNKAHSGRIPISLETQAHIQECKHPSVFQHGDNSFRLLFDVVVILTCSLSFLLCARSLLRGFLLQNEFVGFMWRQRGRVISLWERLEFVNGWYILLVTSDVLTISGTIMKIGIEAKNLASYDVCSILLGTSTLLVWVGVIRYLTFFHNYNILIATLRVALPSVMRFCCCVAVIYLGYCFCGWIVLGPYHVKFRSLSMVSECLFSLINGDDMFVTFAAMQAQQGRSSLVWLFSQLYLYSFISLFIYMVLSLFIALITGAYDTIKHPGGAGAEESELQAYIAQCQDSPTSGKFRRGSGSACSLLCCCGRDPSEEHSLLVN
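Cells: TRPML1-DL, 1X Tet inducer, ~16 h at 37 degrees C/5% CO2. Dye: ABD Ca8 no-wash + quencher, 45-90 min RT. Read: 10 s baseline, compound add, 110 s agonist phase; 54-4 EC80 (4uM final), 110 s antagonist phase.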
TRPML1 blocker = blocks the human TRPML1 channel. activity change, negative = inhibition, % (test concentration not listed). Q9GZU1. 390,000 compounds, 0.02% hits. TRPML1-inducible cells, Ca2+ dye fluorescence, FDSS; stronger effect = lower value; inhibition of EC80 agonist-evoked calcium signal; in the data active means activity change below about -50%; inconclusive means about -30% to -50%; inactive means above about -30%;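 further: stimulus is agonist 54-4 at its EC80 concentration; on the % scale 0 is the no-effect control and ±100 the full control effect; compound concentration not given in the record; the text of the record puts the active cut at -80%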
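Calcium fluorescence in TRPML1-DL cells induced overnight with Tet: a 110 s read after compound pin addition, then a 110 s antagonist read after challenge with 54-4 at 4 uM final (EC80).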
D2 PAM = human D2 receptor positive allosteric modulation. P14416. 360,000 compounds, 0.23% hits. DiscoveRx D2 beta-arrestin cells, luminescence, 90 min; 100% = 57 uM dopamine signal. potentiation, % (no concentration beside the values); active = potentiation of 50% or more; inconclusive = 30% to 50%; inactive = 30% or less;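 further: compound concentration not given in the record; tested on top of an EC20 dose of dopamine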
Target sequence (P14416 whole entry, looked up): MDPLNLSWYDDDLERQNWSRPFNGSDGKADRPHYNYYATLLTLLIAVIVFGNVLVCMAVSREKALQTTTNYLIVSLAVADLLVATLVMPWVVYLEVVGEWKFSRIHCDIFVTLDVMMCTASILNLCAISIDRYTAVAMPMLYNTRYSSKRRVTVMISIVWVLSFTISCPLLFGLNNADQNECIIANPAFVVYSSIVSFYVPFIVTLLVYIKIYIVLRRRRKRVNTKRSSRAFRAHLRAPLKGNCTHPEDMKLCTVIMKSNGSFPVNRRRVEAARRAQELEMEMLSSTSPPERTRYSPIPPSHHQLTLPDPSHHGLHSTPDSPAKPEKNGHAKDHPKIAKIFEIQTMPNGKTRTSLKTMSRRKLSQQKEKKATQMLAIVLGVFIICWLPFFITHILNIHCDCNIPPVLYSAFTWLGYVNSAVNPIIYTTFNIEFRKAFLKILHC
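PathHunter beta-arrestin assay in DiscoveRx D2 cells. Compounds were added with an EC20 of dopamine (50 nM final) for 90 min at 37 deg C. Luminescence was read 1 h after detection reagent, with 57 uM dopamine as the EC100 control.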
PINK1 expr mod = PINK1 expression modulation | PINK1 immunofluorescence, high-content cytometry, 24 h | Potency, µM (doses to about 76.6 µM), inactives show at the top dose activation (PINK1 increase), hits mostly activators | 410,000 compounds, 0.2% hits | AID 624263; active = well fitted activation curve with a large enough effect; inconclusive = small, poorly fitted or top-dose-only effect; inactive = flat fitted curve, though single readings scatter; cell line not stated here;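 further: potency means the concentration at half of the fitted maximal effect; % of control where 0% means no effect; nearly all actives have a fitted effect of over 65% in size; a mitochondrial uncoupler was the plate control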
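Cells are seeded, rested 12 hours, then given compound at five concentrations or DMSO for 24 hours. After fixation, blocking and antibody staining, PINK1 amount and mitochondrial localization are scored; CCCP serves as control.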
Six1-Eya2 inh = inhibitors of human Six1/Eya2 interaction | AID 651725 | AlphaScreen GST-Six1/His-Eya2 binding, biochemical; stronger effect = lower value; control for the full effect not named in the record | activity change, % (concentration not given with the values) | Q15475+O00167 | 360,000 compounds, 0.56% hits; in the data active = activity change below about -65%; inconclusive = about -30% to -65%; inactive = above about -30%; further: on the % scale 0 is the no-effect control and ±100 the full control effect
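Six1/Eya2 binding was read as AlphaScreen signal after compounds were pinned into GST-Six1 plus His-tagged Eya2 (5X stock 250/500 nM) in pH 8.0 Tris/NaCl/TCEP buffer, beads added, then incubated 1 h, 37 C, dark.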
D2 agonist = activates the human D2 dopamine receptor | P14416 | DiscoveRx PathHunter D2 beta-arrestin, luminescence, 90 min; 100% = 57 uM dopamine signal | activation, % (no concentration beside the values) | 360,000 compounds, 0.084% hits; in the data active = activation above about 40%; inconclusive = about 15% to 40%; inactive = below about 15%; further: compound concentration not given in the record; the text of the record calls up to 30% inactive
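Agonist mode: compounds alone added to overnight-plated D2 PathHunter cells for 90 min at 37 C, with 57 uM final dopamine (EC100) defining full response. Beta-arrestin recruitment detected by chemiluminescent reagent, read after 1 h at ambient temperature.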
The depositor's hits bear a star; ? = inconclusive; . = no result given; & = joins results of further samples; [ ] = another dose, or the depositor's remark. An excerpt; count on the stated rates, not on these rows.

# | canonical_smiles | TRPML1 ag | TRPML1 blocker | D2 PAM | PINK1 expr mod | Six1-Eya2 inh | D2 agonist
1 | [O-]c1ccccc1-[n+]1c(-c2ccccc2)cc(-c2ccccc2)cc1-c1ccccc1 | 3.2 | 0 | -14 | 16µM* | -5 | -1.1
2 | O=C(O)Cc1cnc[nH]1 | 0.0 | 0 | -24 | 0.1% | -5 | -2.6
3 | c1ccc(CCN2CCC3(CC2)OCCO3)cc1 | -0.2 | 11 | -9 | 0.4% | 9 | -4.5
4 | O=C(O)COc1ccc(Cl)cc1Cl | . | . | -3 | 0.2%&0.9% | 2 | -1.1
5 | Cc1c(N=Nc2c(O)[nH]c(=O)[nH]c2=O)c(=O)n(-c2ccccc2)n1C | 0.1 | -12 | -7 | -0.5% | -91* | -3.9
6 | CN1CC(C(=O)c2cccc(C(F)(F)F)c2)C(c2ccc(Cl)cc2)C1 (stereo not given) | 0.0 | 23 | -20 | 7.6% | -10 | 2.9
7 | CCn1c(=O)n(CC)c2cc([N+](=O)[O-])c(N3CCNCC3)cc21 | -1.3 | -9 | -20 | 0.4% | -29 | 1.6
8 | COc1ccc(NC(=O)N2C[C@@H]3C[C@@H](C2)c2cccc(=O)n2C3)cc1 | . | . | -12 | -0.4% | 6 | -6.1
9 | COC(=O)C1=C(c2ccc(C(C)=O)cc2)C[C@@H]2CC[C@H]1N2C(=O)NCC1CC1 | -0.1 | -6 | -1 | 0.6% | -2 | -1.2
10 | Cc1c(/C=N/O)c2ccccc2n1C | 4.8 | -7 | ? | -0.8% | -2 | 1.8
11 | CCCNC(=O)N1[C@H]2CC[C@@H]1C(C(=O)OC)=C(c1ccc(C(C)=O)cc1)C2 | 0.0 | 9 | -5 | -1.1% | 1 | -3.5
12 | Cc1cc(O)c2c(c1)OC(C)(C)C1=C2CC(C)CC1 (stereo not given) | 1.2 | 4 | 3 | 8.3% | -13 | 5.6
13 | COc1cccc(CN2CCN(c3ccc(F)cc3)CC2)c1OC | -1.0 | -18 | -28 | 2.4% | -10 | -0.6
14 | CCCCCSc1cc(OC)c(CCN)cc1OC | 2.9 | -7 | -30 | -3.5% | ? | -11
15 | COc1ccc(CCn2c(O)c(C=NCCN3CCCCC3)c(=O)[nH]c2=O)cc1OC | -0.8 | -1 | -6 | -2.1% | 1 | -1.7
16 | CCOC(=O)[C@]12Cc3cc(C)ccc3[C@H]1N(Cc1ccccc1)C(=O)c1cc(F)c(F)cc12 | -0.3 | . | . | -1.4% | -3 | .
17 | COc1ccc(-c2nn(CCC#N)cc2C(=O)Nc2ccccc2Br)cc1 | 0.0 | -2 | 0 | 7.4% | -6 | -0.3
18 | C[C@]12CCC(=O)C=C1CC[C@@H]1[C@@H]2C(=O)C[C@]2(C)C(=O)CC[C@@H]12 | -0.6 | -3 | 0 | 3.3% | 2 | -3.8
19 | O=C(/C=C/c1ccc(Cl)cc1)NC(=S)N1C[C@H]2C[C@H](C1)c1cccc(=O)n1C2 | 0.2 | 2 | -4 | 0.8% | -2 | 2.7
20 | O=Cc1cn(Cc2ccc([N+](=O)[O-])cc2)c2ccccc12 | 1.3 | 7 | -25 | 2.8% | 4 | -0.8
21 | COc1ccccc1CN1CCN(C(=O)COc2ccc3ccccc3c2)CC1 | -0.8 | 15 | -28 | -0.1% | -9 | -6.2
22 | COC(=O)CCCCC1SCC(NC(=O)c2ccccc2)C1Cl (stereo not given) | 0.7 | -4 | -20 | -0.9% | -3 | 3.4
23 | Cc1c(N=Nc2c(O)n(Cc3ccccc3)c(=O)[nH]c2=O)c(=O)n(-c2ccccc2)n1C | -0.7 | -8 | -30 | -1.2% | -89* | -3.8
24 | COCCNC(=O)N1[C@H]2CC[C@@H]1C(C(=O)OC)=C(c1ccc(-c3ccccc3)c(F)c1)C2 | -0.3 | 5 | -22 | 2.1% | 0 | 3.0
25 | O=C1NC(=O)N(Cc2ccc(F)cc2)C(=O)/C1=C\c1ccoc1 | 3.3 | -19 | -7 | 16% | -2 | 1.0
26 | CC(N=Cc1c(O)[nH]c(=O)[nH]c1=O)c1ccccc1 (stereo not given) | 0.5 | -2 | -6 | 1.4% | 10 | -1.8
27 | CC1N=C(c2ccccc2Cl)c2cc(Br)ccc2NC1=O (stereo not given) | 1.2 | -2 | -3 | 2.2% | 1 | 5.5
28 | CCC(=NCCc1c[nH]c2ccccc12)c1c(O)n(C)c(=O)n(C)c1=O | 3.5 | -11 | -6 | 1.5%[38.3 µM] | -14 | 1.5
29 | CCC(=O)OC1(c2ccccc2)C(C)CN(C)CC1C (stereo not given) | 0.5 | 23 | -1 | 0.4% | 9 | -5.4
30 | Cn1nccc1C(=O)N1CCC2(CC1)OCCO2 | 0.9 | -13 | 11 | -0.7% | 2 | 5.6

Random excerpt: three entries already listed
# | canonical_smiles | TRPML1 ag | TRPML1 blocker | D2 PAM | PINK1 expr mod | Six1-Eya2 inh | D2 agonist
1 | [O-]c1ccccc1-[n+]1c(-c2ccccc2)cc(-c2ccccc2)cc1-c1ccccc1 | 3.2 | 0 | -14 | 16µM* | -5 | -1.1
26 | CC(N=Cc1c(O)[nH]c(=O)[nH]c1=O)c1ccccc1 (stereo not given) | 0.5 | -2 | -6 | 1.4% | 10 | -1.8
8 | COc1ccc(NC(=O)N2C[C@@H]3C[C@@H](C2)c2cccc(=O)n2C3)cc1 | . | . | -12 | -0.4% | 6 | -6.1

More records follow.
# | canonical_smiles | TRPML1 ag | TRPML1 blocker | D2 PAM | PINK1 expr mod | Six1-Eya2 inh | D2 agonist
31 | Cc1nnc(NC(=O)c2cccn(Cc3ccc(Cl)cc3)c2=O)s1 | 1.4 | 0 | . | -3.6% | . | .
32 | CCOC(=O)[C@]12Cc3cc(OC)ccc3[C@H]1N(Cc1ccccc1)C(=O)c1cc(OC)ccc12 | -0.2 | . | . | -0.9% | -13 | .
33 | CCN(CC)C(=O)c1ccc(NC(=O)c2cccc(S(=O)(=O)N3CCN(C)CC3)c2)cc1 | -0.2 | 2 | -1 | 0.7% | 5 | -4.6
34 | COC(=O)C1=C(c2ccc(-c3ccccc3)c(F)c2)C[C@@H]2CC[C@H]1N2C(=O)NCCOc1ccccc1Cl | 0.1 | 0 | -16 | -0.4% | -7 | -3.4
35 | C=C1C2C[C@H](O)C(C)(C)[C@@]2(O)[C@H](O)C[C@]23C[C@@](C)(O)[C@H](CC[C@H]12)[C@H]3OC(C)=O (stereo not given in full) | 0.3 | 0 | -10 | -0.4% | 10 | -2.0
36 | CC(C)Cc1nc2cccnc2n1C1CCNCC1 | 0.0 | 39 | . | -0.3% | . | .
37 | COC(=O)C1=C(c2ccc(C(C)=O)cc2)C[C@@H]2CC[C@H]1N2C(=O)N1CCCC1 | -0.6 | 8 | -2 | -0.4% | 1 | 1.4
38 | CC(Cc1ccccc1)NC=O (stereo not given) | . | . | -3 | 1.1% | 1 | -5.7
39 | Cc1ccccc1NP(=O)(Oc1ccccc1F)Oc1ccccc1F | 0.3 | 3 | 0 | 1.7% | 5 | -1.0
40 | CCOC(=O)c1ccc(N=C(C)c2c(O)[nH]c(=O)[nH]c2=O)cc1 | 0.4 | 11 | -9 | -1.0% | 10 | -0.3
41 | CC(Cc1ccccc1)NC(=O)/C=C/c1ccc(Cl)cc1 (stereo not given) | 0.5 | -7 | -11 | 0.3% | 6 | -3.2
42 | CN1C[C@H](CNC(=O)OCc2ccccc2)C[C@@H]2c3cccc4c3c(cn4C)C[C@H]21 | 0.5 | 6 | -26 | 0.6% | -8 | 2.7&-4.8
43 | O=c1[nH]c(O)c(C=Nc2ccccc2Oc2ccccc2)c(=O)[nH]1 | -0.4 | 12 | -3 | 0.4% | 5 | -2.8
44 | O=c1c2ccccc2nc(-c2ccco2)n1-c1nccs1 | 1.4 | 12 | -5 | 2.3% | -8 | -3.3
45 | COC(=O)C1=C(c2ccc(OC(F)(F)F)cc2)C[C@@H]2CC[C@H]1N2C(=O)NCc1cccc2ccccc12 | 3.7 | 20 | -6 | 1.7% | 21 | 0.5

An excerpt of these results, field by field:
41. CC(Cc1ccccc1)NC(=O)/C=C/c1ccc(Cl)cc1 (stereo not given)
  TRPML1 ag = 0.5 | TRPML1 blocker = -7 | D2 PAM = -11 | PINK1 expr mod = 0.3% | Six1-Eya2 inh = 6 | D2 agonist = -3.2

38. CC(Cc1ccccc1)NC=O (stereo not given)
  TRPML1 ag = . | TRPML1 blocker = . | D2 PAM = -3 | PINK1 expr mod = 1.1% | Six1-Eya2 inh = 1 | D2 agonist = -5.7

Other results follow.
# | canonical_smiles | TRPML1 ag | TRPML1 blocker | D2 PAM | PINK1 expr mod | Six1-Eya2 inh | D2 agonist
46 | CCC1C(C#N)=C(N)Oc2c1c(=O)oc1ccccc21 (stereo not given) | -0.5 | 12 | -28 | -0.8% | 13 | 6.7
47 | CN(CC=CCN(C)P(=S)(N1CC1)N1CC1)P(=S)(N1CC1)N1CC1 | -0.3 | -7 | -1 | 0.8% | 0 | -0.8
48 | C=CCNC(=S)/N=C/c1c(O)[nH]c(=O)[nH]c1=O | 2.9 | 3 | -5 | -1.2% | 2 | 1.7
49 | CC(C)Oc1cccc(C(=O)C2CCCN(Cc3ccon3)C2)c1 (stereo not given) | -0.1 | 17 | -8 | -0.8% | -2 | 0.5
50 | O=P(Nc1c(Cl)cccc1Cl)(c1ccccc1)c1nc2c(s1)CCCC2 (stereo not given) | -0.2 | -6 | 6 | -0.8%[38.3 µM] | 3 | -3.4
51 | CCCC(C)C1(CC)C(=O)NC(=Nc2ccccc2)NC1=O (stereo not given) | -0.3 | -11 | 2 | 1.6% | 1 | -0.9
52 | CC(C)Oc1ccc(CCN)cc1Cl | 0.9 | -19 | -14 | -0.6% | 2 | 0.7
53 | CN1CCCN(C(=O)COc2cccc(C(F)(F)F)c2)CC1 | -0.1 | 3 | -13 | 3.5% | 3 | -1.3
54 | CCNc1cc(N2CCN(C)CC2)ccc1[N+](=O)[O-] | -0.3 | 0 | -7 | -0.4% | -4 | -2.3
55 | Cc1cc(C)cc(N2C(=O)/C(=C\c3ccc(N4CCN(C)CC4)o3)C(=O)NC2=S)c1 | 18 | 12 | -1 | 6.6% | 0 | -2.2
56 | CC(=O)OC1C(=O)OCC23CCC4(C)OC4C2OC2CC(OC(=O)C=CC=CC(=O)OCCC1C)C3(C)C21CO1 (stereo not given) | 0.9 | 0 | -22 | -7.2% | 0 | -6.4
57 | CN(Cc1cccc(-c2ccncc2)c1)C(=O)Oc1ccccc1Cl | -0.6 | . | . | -0.7% | 0 | .
58 | CCCN1CCC[C@@H]2Cc3nc(N)ncc3C[C@H]21 | 0.2 | 1 | 117* | 0.1% | -1 | 126*
59 | CN(C)c1ccc2c(c1)N=C(c1ccco1)OP2(=S)N1CCOCC1 (stereo not given) | -0.1 | -18 | -8 | -0.4%[38.3 µM] | -7 | 0.1
60 | COC(=O)C1=C(c2cccc(OCc3ccccc3)c2)C[C@@H]2CC[C@H]1N2C(=O)NCCOc1ccccc1Cl | 0.1 | 4 | -19 | -1.8% | -8 | -3.2

From PubChem
